A1 inhib: inhibitors of A1. MEF A1-2A-BIM cells, caspase-Glo luminescence, 3 h; percent of clofoctol signal, DMSO as zero. caspase activation, % (test concentration not listed). 0.51% of 21,000 active. AID 2241;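 active means most replicate scores above 10, or exactly half above 10 with mean activity above 10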;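 further: effector caspase 3 and 7 activity cleaving a DEVD luciferin substrate; 50 nL library stock added to about 30 µL; numbers are from one replicate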
BJeLR viab HTS: compounds reducing viability of BJeLR cells; 0.64% of 30,000 active; viability loss activity score, % (no concentration beside the values); BJeLR fibroblasts viability, CellTiterGlo ATP luminescence, 48 h; HRASV12, hTERT and SV40 LT/ST transformed; AID 2275; in the data active means viability loss activity score above about 50%; about a fifth of its hits are not listed in these tables;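 further: higher score means fewer live cells and less ATP luminescence; stock transfer was 50 or 100 nL into about 30 µL; 0% = vehicle wells and 100% = a reference killing control; one replicate is shown; the record names a cut of 85%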
Numbers without * were called inactive. An excerpt (hit frequency here may not be typical).

C[C@@H]1CN([C@@H](C)CO)C(=O)c2cccc(NC(=O)c3ccncc3)c2O[C@@H]1CN(C)S(=O)(=O)c1cccs1 was read as BJeLR viab HTS 0.3.
`C[C@@H]1CN([C@@H](C)CO)C(=O)c2cc(NS(=O)(=O)c3cn(C)cn3)ccc2O[C@@H]1CN(C)CC1CCCCC1` gave A1 inhib -0.4 and BJeLR viab HTS -6.4.
`O=C(NC(=O)c1ccc(OCC(F)(F)F)nc1)NN1CCOCC1` gave A1 inhib 1.0 and BJeLR viab HTS -5.1.
`COc1ccc(-c2cc(C(F)(F)F)nc(SCC(=O)N(C)C3CCCCC3)n2)cc1` gave A1 inhib 0.6 and BJeLR viab HTS 2.3.
CCCCc1c(C)nc2c(OC)cccc2c1SCCC(=O)O was read as A1 inhib 0.7 and BJeLR viab HTS 5.7.
For C[C@@H]1CN([C@@H](C)CO)C(=O)c2cccc(NC(=O)Nc3ccc4c(c3)OCO4)c2O[C@@H]1CN(C)Cc1ccc(C(=O)O)cc1 the results were BJeLR viab HTS 3.2.
`O=C(Cc1ccccc1)Nc1ccc(-c2nc3cccnc3s2)cc1` gave A1 inhib -3.2 and BJeLR viab HTS -1.7.
O=C1OCc2cc3cccc(O[C@@H]4O[C@H](CO)[C@@H](O)[C@H](O)[C@H]4O)c3c(O)c21 was read as A1 inhib -0.1 and BJeLR viab HTS 14.
OC(CN1CCOCC1)c1ccccc1 (centres undefined) was read as A1 inhib -1.1 and BJeLR viab HTS -3.1.
Cc1ccc(NC(=O)COC(=O)CSc2n[nH]c(-c3ccccc3)n2)cc1 was read as A1 inhib -0.7 and BJeLR viab HTS 8.3.
Screening C[C@H]1CN([C@@H](C)CO)C(=O)c2cc(NC(=O)CCC(F)(F)F)ccc2O[C@@H]1CN(C)S(C)(=O)=O returned A1 inhib 0.4 and BJeLR viab HTS 2.7.
For Cc1nnc(Sc2cc(C(=O)NCc3ccccn3)c3ccccc3n2)s1 the results were A1 inhib -0.2 and BJeLR viab HTS -7.3.
For CCOC(=O)c1c(C)[nH]c(/C(C)=N\O)c1C the results were A1 inhib -0.7 and BJeLR viab HTS -4.2.
Cc1noc(C)c1S(=O)(=O)N(C)C[C@@H]1Oc2c(NS(C)(=O)=O)cccc2C(=O)N([C@@H](C)CO)C[C@H]1C was read as BJeLR viab HTS 1.7.
For CC(C)C(=O)/C=C1/Sc2ccccc2N1C the results were A1 inhib -1.7 and BJeLR viab HTS -2.6.
Screening Cc1ccc(C(=O)C2C(=O)c3ccccc3C2=O)cc1 returned A1 inhib -0.5 and BJeLR viab HTS 2.1.
For C[C@H]1CN([C@@H](C)CO)C(=O)c2cccc(NC(=O)Nc3cccc4ccccc34)c2O[C@@H]1CN(C)C(=O)Nc1ccc2c(c1)OCO2 the results were BJeLR viab HTS -6.6.
For Cc1nn(C)c2ncc(C(N)=O)c(Oc3cccnc3)c12 the results were A1 inhib 0.8 and BJeLR viab HTS 3.5.
`COc1ccc(OC)c(NC(=O)CSc2nc3nc(C)c(Cc4ccccc4)c(C)n3n2)c1` gave A1 inhib -0.5 and BJeLR viab HTS -2.8.
For Cc1cc(C(=O)Nc2cccc3c2O[C@@H](CN(C)Cc2ccccc2)[C@@H](C)CN([C@@H](C)CO)C3=O)n(C)n1 the results were BJeLR viab HTS -2.8.
`CCNS(=O)(=O)c1ccc(Cl)cc1I` gave A1 inhib -0.1 and BJeLR viab HTS 6.6.
Cc1ccc(S(=O)(=O)Nc2ccc3c(c2)C(=O)N([C@@H](C)CO)C[C@@H](C)[C@H](CN(C)S(=O)(=O)c2ccc(F)cc2)O3)cc1 was read as A1 inhib -0.2 and BJeLR viab HTS -0.8.
Cc1cc(=O)c2c(O)c(C)c(O)cc2o1 was read as A1 inhib 0.1 and BJeLR viab HTS 4.6.
For CCn1c(=S)[nH]c2ccccc2c1=O the results were A1 inhib -0.7 and BJeLR viab HTS -2.2.
COC(=O)c1[nH]nc2c1C(=O)N(C1CCCCC1)C2=O was read as BJeLR viab HTS -2.1.
For COCCN1C(=S)NC2c3ccccc3OC13CCCC23 (centres undefined) the results were BJeLR viab HTS 22.
Screening Cc1cc(Sc2nnc(C)s2)c2ccccc2n1 returned A1 inhib 0.1 and BJeLR viab HTS 34.
Screening FC(F)(F)COc1cc(-c2n[nH]c(=S)n2Cc2ccco2)cc(OCC(F)(F)F)n1 returned A1 inhib -0.3 and BJeLR viab HTS 3.4.
For O=C(C1CCC(CNS(=O)(=O)c2cccc3cccnc23)CC1)N1CCc2ccccc21 (centres undefined) the results were A1 inhib 2.6 and BJeLR viab HTS 18.
For N#Cc1c(SC2CCCC2)nsc1SC1CCCC1 the results were A1 inhib -0.9 and BJeLR viab HTS -2.2.
Cc1cccc(CN(C(=O)Nc2ccc(Cl)c(Cl)c2)c2ccccn2)c1 was read as A1 inhib -0.3 and BJeLR viab HTS 9.4.
For Cc1nc2c(C(=O)NCc3ccc4c(c3)OCO4)cnn2c(C)c1Cc1c(F)cccc1Cl the results were A1 inhib -0.1 and BJeLR viab HTS 0.6.
COc1ccc2nc3c(cc2c1)c(=O)n(C)c(=O)n3C was read as A1 inhib -0.6 and BJeLR viab HTS -4.2.
`Cc1noc(C)c1NC(=O)N(C)C[C@@H]1Oc2c(NC(=O)c3ccncc3)cccc2C(=O)N([C@H](C)CO)C[C@H]1C` gave BJeLR viab HTS 0.1.
`CSC(=NC(C)(C)C)Nc1ccccc1Cl` gave A1 inhib -0.4 and BJeLR viab HTS 2.3.
`Cc1ccc(S(=O)(=O)Nc2ccc3c(c2)C(=O)N([C@@H](C)CO)C[C@@H](C)[C@H](CN(C)C(=O)Nc2ccc(C(F)(F)F)cc2)O3)cc1` gave A1 inhib 0.5 and BJeLR viab HTS 6.1.
For CC(=O)NN1C(=O)c2ccccc2NC1c1ccccc1 (centres undefined) the results were BJeLR viab HTS -1.2.
Screening Cc1csc2sc(-c3ccnc(SCc4ccccc4)n3)c(C)c12 returned A1 inhib -0.1 and BJeLR viab HTS -2.3.
COc1ccc(S(=O)(=O)N(C)C[C@@H]2Oc3ccc(NS(=O)(=O)c4ccc(F)cc4)cc3C(=O)N([C@@H](C)CO)C[C@@H]2C)cc1 was read as A1 inhib 0.0 and BJeLR viab HTS -4.3.
Screening COc1ccc(NC(=O)Nc2ccc3c(c2)C(=O)N([C@H](C)CO)C[C@H](C)[C@H](CN(C)Cc2ccc4c(c2)OCO4)O3)cc1 returned A1 inhib -0.3 and BJeLR viab HTS -0.2.
Screening OCCN1CCN(CC/C=C2/c3ccccc3Sc3ccc(C(F)(F)F)cc32)CC1 returned A1 inhib -0.3 and BJeLR viab HTS 0.5.
`Cc1cc(O)cc(=O)o1` gave A1 inhib 0.2 and BJeLR viab HTS -1.5.
Screening CCN(CC)Cc1c(O)ccc2cc(-c3nc4ccccc4s3)c(=O)oc12 returned BJeLR viab HTS 2.2.
`C[C@H](CO)N1C[C@H](C)[C@@H](CN(C)Cc2ccncc2)Oc2c(NC(=O)Nc3ccc4c(c3)OCO4)cccc2C1=O` gave BJeLR viab HTS 2.2.
`Cc1noc(C)c1NC(=O)Nc1ccc2c(c1)C(=O)N([C@H](C)CO)C[C@H](C)[C@H](CN(C)C(=O)Nc1cccc3ccccc13)O2` gave A1 inhib 0.0 and BJeLR viab HTS -5.8.
C[C@H](CO)N1C[C@H](C)[C@@H](CN(C)C(=O)Nc2cccc3ccccc23)Oc2c(NC(=O)Nc3ccc4c(c3)OCO4)cccc2C1=O was read as BJeLR viab HTS -1.6.
COc1ccc(CN(C)C[C@@H]2Oc3c(NC(=O)Nc4ccccc4)cccc3C(=O)N([C@H](C)CO)C[C@@H]2C)cc1 was read as BJeLR viab HTS 0.5.
Screening CC/C=C\C/C=C\C/C=C\CCCCCCCC(=O)O returned A1 inhib -0.3 and BJeLR viab HTS -4.1.

2 entries drawn at random from those above, as already listed:
`Cc1noc(C)c1NC(=O)Nc1ccc2c(c1)C(=O)N([C@H](C)CO)C[C@H](C)[C@H](CN(C)C(=O)Nc1cccc3ccccc13)O2` gave A1 inhib 0.0 and BJeLR viab HTS -5.8.
`C[C@H](CO)N1C[C@H](C)[C@@H](CN(C)Cc2ccncc2)Oc2c(NC(=O)Nc3ccc4c(c3)OCO4)cccc2C1=O` gave BJeLR viab HTS 2.2.

Continuation:
C[C@@H]1CN([C@@H](C)CO)C(=O)c2cccc(NC(=O)c3ccncc3)c2O[C@H]1CN(C)C(=O)NC1CCCCC1 was read as BJeLR viab HTS 0.6.
For O=C(NC1CCCCNC1=O)c1ccc2nsnc2c1 (centres undefined) the results were A1 inhib -0.2 and BJeLR viab HTS -0.1.
For CC1=CC(=O)CC2C1(C)CCC(C)C2(C)CCC(C)CC(=O)O (centres undefined) the results were A1 inhib -0.7 and BJeLR viab HTS -6.3.
`COc1ccc(C(=O)Nc2ccc(C)c(C)c2)cc1` gave A1 inhib -6.8 and BJeLR viab HTS 14.
C[C@@H]1CN([C@H](C)CO)C(=O)c2cc(NC(=O)Nc3cccc4ccccc34)ccc2O[C@@H]1CN(C)C(=O)Nc1ccc(C(F)(F)F)cc1 was read as A1 inhib 0.5 and BJeLR viab HTS 1.2.
`COc1ccc(S(=O)(=O)Nc2cccc3c2O[C@@H](CN(C)C(=O)NC(C)C)[C@@H](C)CN([C@H](C)CO)C3=O)cc1` gave BJeLR viab HTS -1.7.
For C[C@H]1CN([C@@H](C)CO)C(=O)c2cc(NC(=O)Cn3cnnn3)ccc2O[C@@H]1CN(C)CC1CCCCC1 the results were A1 inhib 1.2 and BJeLR viab HTS -1.6.
`O=c1cc(Cc2nnc(SCc3c(F)cccc3Cl)n2-c2ccc(F)cc2)[nH]c(=O)[nH]1` gave BJeLR viab HTS -1.6.
For O=C(NC(CO)Cc1ccccc1)c1ccccc1 (centres undefined) the results were A1 inhib 0.5 and BJeLR viab HTS -1.1.
For Cc1ccccc1OCCCC(=O)Nc1cccc(C(F)(F)F)c1 the results were A1 inhib 0.2 and BJeLR viab HTS 0.8.
C[C@@H]1CN([C@H](C)CO)C(=O)c2cc(NC(=O)Cc3ccccc3)ccc2O[C@H]1CN(C)Cc1ccc(Oc2ccccc2)cc1 was read as A1 inhib 2.1 and BJeLR viab HTS -2.3.
C[C@H]1CN([C@@H](C)CO)C(=O)c2cc(NC(=O)Cc3cn(C)c4ccccc34)ccc2O[C@H]1CN(C)S(=O)(=O)c1ccc(F)cc1 was read as A1 inhib 0.2 and BJeLR viab HTS -1.8.
For C[C@H](CO)N1C[C@H](C)[C@H](CN(C)Cc2ccc(Cl)c(Cl)c2)Oc2c(NC(=O)C3CC3)cccc2C1=O the results were BJeLR viab HTS 1.8.
Screening NC1=NC(=O)/C(=C/c2ccc(I)o2)S1 returned A1 inhib 2.8 and BJeLR viab HTS 6.9.
For CCCOC(=O)C1=C(C)N(CC)C(=O)NC1c1ccccc1Cl (centres undefined) the results were A1 inhib -0.3 and BJeLR viab HTS 4.4.
For COc1cccc(/C=N/n2cnnc2)c1 the results were A1 inhib -0.5 and BJeLR viab HTS 1.3.
Screening O=C1c2nc3cc(-c4ccccc4)[nH]n3c(=O)c2CN1Cc1ccccc1 returned A1 inhib 1.7 and BJeLR viab HTS -8.4.
`C[C@H]1CN([C@@H](C)CO)C(=O)c2cc(NC(=O)CCN3CCOCC3)ccc2O[C@@H]1CN(C)C(=O)Nc1ccc(C(F)(F)F)cc1` gave A1 inhib 0.9 and BJeLR viab HTS -3.1.
Screening Cc1oc(C(C)(C)C)cc1-c1cc(N)n(-c2ccc(I)cc2)n1 returned A1 inhib 0.2 and BJeLR viab HTS -0.9.
For Nc1cc(OC(=O)c2ccccc2)nn1S(=O)(=O)c1ccccc1 the results were A1 inhib 0.4 and BJeLR viab HTS 1.0.
For S=C(c1c[nH]c2ccccc12)N1CCCC1 the results were A1 inhib -0.2 and BJeLR viab HTS 2.1.
O=C(c1cc(-c2ccc(Cl)cc2)n[nH]1)N1CCN(C(=O)c2ccco2)CC1 was read as A1 inhib -0.4 and BJeLR viab HTS -3.0.
Screening C[C@H](CO)N1C[C@H](C)[C@@H](CN(C)Cc2ccccc2)Oc2c(NC(=O)C3CC3)cccc2C1=O returned BJeLR viab HTS -2.6.
For Cc1cccc(-c2nc3ccccc3n2CCC(C)C)c1 the results were A1 inhib 0.0 and BJeLR viab HTS 4.9.
For CCOc1cc2[nH]c(=O)n(CCC(=O)NC3CCCCC3C)c(=O)c2cc1OCC (centres undefined) the results were A1 inhib 0.3 and BJeLR viab HTS -3.1.
`COc1ccc(NC(=O)Nc2ccc3c(c2)C(=O)N([C@@H](C)CO)C[C@H](C)[C@@H](CN(C)Cc2ccc(C(F)(F)F)cc2)O3)cc1` gave A1 inhib 0.8 and BJeLR viab HTS -7.2.
For CCOC(=O)CSc1nnc(CNC(=O)c2cccs2)n1C the results were BJeLR viab HTS -4.0.
Screening C[C@H](CO)N1C[C@H](C)[C@@H](CN(C)CC2CCCCC2)Oc2ccc(NS(=O)(=O)c3ccc(F)cc3)cc2C1=O returned A1 inhib 0.4 and BJeLR viab HTS 4.7.
For CC1=C(C#N)C(c2ccccc2)C2=C(CC(c3ccccc3)CC2=O)N1 (centres undefined) the results were BJeLR viab HTS 3.7.
COC(=O)c1sc(C(C)(C)C)cc1CS(=O)(=O)c1ccccn1 was read as A1 inhib 0.2 and BJeLR viab HTS 0.2.

Part of the list above in order of formula weight, smallest number first:
For S=C(c1c[nH]c2ccccc12)N1CCCC1 the results were A1 inhib -0.2 and BJeLR viab HTS 2.1.
For Cc1nn(C)c2ncc(C(N)=O)c(Oc3cccnc3)c12 the results were A1 inhib 0.8 and BJeLR viab HTS 3.5.
O=C(c1cc(-c2ccc(Cl)cc2)n[nH]1)N1CCN(C(=O)c2ccco2)CC1 was read as A1 inhib -0.4 and BJeLR viab HTS -3.0.
`COc1ccc(S(=O)(=O)Nc2cccc3c2O[C@@H](CN(C)C(=O)NC(C)C)[C@@H](C)CN([C@H](C)CO)C3=O)cc1` gave BJeLR viab HTS -1.7.
COc1ccc(S(=O)(=O)N(C)C[C@@H]2Oc3ccc(NS(=O)(=O)c4ccc(F)cc4)cc3C(=O)N([C@@H](C)CO)C[C@@H]2C)cc1 was read as A1 inhib 0.0 and BJeLR viab HTS -4.3.
